# Compound activity as filed in PubChem BioAssay.
# hNpr1 antagonist = antagonists of human natriuretic peptide receptor Npr1; AID 1347048; P16066; HEK293 hNpr1 GloSensor cGMP, ANP-stimulated luminescence; 76,000 tested, 1.6% active; Potency, µM (highest dose often 46.3 µM), without a hit: top-dose activity change, negative = inhibition, hits mostly inhibitors; active = well fitted inhibition curve with a large enough effect; inconclusive = small, poorly fitted or top-dose-only effect; inactive = no such curve, though single readings can be large or run the other way;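 also: nearly all actives have a fitted effect of over 60% in size; nearly all hits also lower the signal before the agonist is added; a reference antagonist and vehicle were the controls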
# Target sequence (P16066 whole entry, looked up): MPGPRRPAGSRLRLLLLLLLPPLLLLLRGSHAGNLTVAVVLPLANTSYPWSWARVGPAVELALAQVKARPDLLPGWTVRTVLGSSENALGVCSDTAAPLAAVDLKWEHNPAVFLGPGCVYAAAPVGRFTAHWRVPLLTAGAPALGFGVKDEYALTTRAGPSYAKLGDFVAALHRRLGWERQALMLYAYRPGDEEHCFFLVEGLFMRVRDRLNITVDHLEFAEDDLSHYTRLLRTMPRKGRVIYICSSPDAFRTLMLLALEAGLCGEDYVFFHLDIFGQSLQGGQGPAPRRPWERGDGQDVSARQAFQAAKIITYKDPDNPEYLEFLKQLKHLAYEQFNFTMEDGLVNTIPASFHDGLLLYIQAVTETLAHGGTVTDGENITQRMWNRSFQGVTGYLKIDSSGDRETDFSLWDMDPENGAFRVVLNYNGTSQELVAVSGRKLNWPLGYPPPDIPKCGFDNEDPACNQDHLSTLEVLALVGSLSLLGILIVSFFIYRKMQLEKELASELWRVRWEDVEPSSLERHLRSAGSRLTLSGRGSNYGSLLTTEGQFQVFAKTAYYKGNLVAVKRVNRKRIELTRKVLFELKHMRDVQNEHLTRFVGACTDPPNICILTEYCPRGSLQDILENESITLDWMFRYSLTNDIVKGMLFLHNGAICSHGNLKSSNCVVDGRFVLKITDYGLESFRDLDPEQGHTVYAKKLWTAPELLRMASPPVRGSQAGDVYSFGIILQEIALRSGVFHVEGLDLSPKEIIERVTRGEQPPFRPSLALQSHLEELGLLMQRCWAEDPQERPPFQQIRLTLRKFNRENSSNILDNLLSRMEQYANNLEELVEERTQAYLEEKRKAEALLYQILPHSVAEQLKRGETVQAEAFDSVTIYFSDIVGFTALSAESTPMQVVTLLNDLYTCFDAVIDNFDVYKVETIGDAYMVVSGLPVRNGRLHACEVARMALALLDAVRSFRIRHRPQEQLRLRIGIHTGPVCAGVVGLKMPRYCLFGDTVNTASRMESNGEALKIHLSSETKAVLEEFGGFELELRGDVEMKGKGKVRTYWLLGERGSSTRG
#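 Compound pre-incubated 30 min at room temperature on GloSensor-loaded HEK293 cells stably carrying hNpr1 and the pGS-40F cGMP biosensor. Stimulation uses hNppA at 0.1 nM final; luminescence is taken at baseline and 20 min post-agonist.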
# Numbers without * were called inactive; & = joins results of further samples; [ ] = another dose, or the depositor's remark. % is scaled to controls: 0 for no effect and ±100 for the full control effect; potency is read from the fitted curve at half-maximal effect. The list is partial. The share of hits here may be higher or lower than overall.
SMILES,hNpr1 antagonist
CCC(C)NC(=O)C1COC2(CCN(C(=O)CC(C)C)CC2)N1C(=O)c1cccc(OC)c1 (configuration not stated),-8%
COc1ccc(-c2nc(C(C)C)nc3c2CN([S+](=O)([O-])c2cccs2)CC3)cc1,6%
CN1CCC(Oc2ncccc2C(=O)NCCc2ccncc2)CC1,-8%
CN(CC1CCOC1)S(=O)(=O)c1cccc(C(F)(F)F)c1 (configuration not stated),0%
C=CCn1ccn2cnc(-c3ccccc3)c2c1=O,-1%
O=C(NCCc1c[nH]c2ccccc12)c1c(OCC2CC2)cc(=O)n2c1CCOCC2,-2%
CCN1c2cc(C(=O)Nc3ccc(OC)c(OC)c3)ccc2C(=O)N2CCCCCC21 (configuration not stated),-30%
COc1ccc(C(=O)N[C@H]2CO[C@H]3[C@@H]2OC[C@H]3OCc2ccccc2)cc1,-1%[70.6 µM]
c1ccc(CNC[C@H]2Cn3c(-c4ccc5c(c4)OCCO5)cnc3CO2)cc1,-23%[70.6 µM]
COc1ccc(C(=O)N2CCC(n3cc(-c4nc(C)no4)nn3)CC2)c(C)c1,0%
CC(C)N1C(=O)C2(CCCCC2)C1C(=O)NCC1CC1 (configuration not stated),-6%
COc1ccc(OC)c(NC(=O)c2nnn3c2COC(c2ccc(Cl)cc2)C3)c1 (configuration not stated),0%
CN1CCN(Cc2nc(C3(O)CCNCC3)cs2)CC1,-3%[70.6 µM]
O=C1CCN(Cc2cccnc2)CCCC(C(=O)Nc2ccccc2)CCN1 (configuration not stated),5%
COc1cccc(-c2cc3c(=O)n(CCNC(=O)c4ccc(Cl)cc4)ccn3n2)c1,1%

# Part of the list above in order of count of non-hydrogen atoms, smallest number first:
SMILES,hNpr1 antagonist
C=CCn1ccn2cnc(-c3ccccc3)c2c1=O,-1%
O=C1CCN(Cc2cccnc2)CCCC(C(=O)Nc2ccccc2)CCN1 (configuration not stated),5%
COc1ccc(OC)c(NC(=O)c2nnn3c2COC(c2ccc(Cl)cc2)C3)c1 (configuration not stated),0%
CCN1c2cc(C(=O)Nc3ccc(OC)c(OC)c3)ccc2C(=O)N2CCCCCC21 (configuration not stated),-30%
CCC(C)NC(=O)C1COC2(CCN(C(=O)CC(C)C)CC2)N1C(=O)c1cccc(OC)c1 (configuration not stated),-8%

# The listing picks up, repeating the 2 entries before the break.
SMILES,hNpr1 antagonist
O=C1CCN(Cc2cccnc2)CCCC(C(=O)Nc2ccccc2)CCN1 (configuration not stated),5%
COc1cccc(-c2cc3c(=O)n(CCNC(=O)c4ccc(Cl)cc4)ccn3n2)c1,1%
Cc1ccc(C)c(NC(=O)Cn2c(=O)n(-c3ccccc3)c(=O)c3c2cc(C)n3C)c1,-7%
CS(=O)(=O)N[C@@H]1C[C@H](Cn2cc(C3CC3)nn2)[C@@H](O)[C@H]1O,-2%[70.6 µM]
CN(C)c1nc2c(c(=O)[nH]1)CCN(Cc1ccc(Cl)c(F)c1)CC2,-11%
COc1ccc(OCC2(C)COc3ccc(C(=O)NCc4cccc(F)c4)cc3N2)cc1 (configuration not stated),-20%[70.6 µM]
Cc1ccccc1-c1nc(C2CC(=O)N(C3CCCCC3)C2)no1 (configuration not stated),-10%
O=C(Nc1ccc(Cl)cc1)c1nc2c(o1)CCN(Cc1ccc3c(c1)CCO3)CC2,5µM*
O=C(COc1ccc(F)cc1)N1CCC(n2cc(-c3nc(C4CC4)no3)nn2)C1 (configuration not stated),-2%
CCOc1ccc(C(=O)NC2CCCN(c3cc(-c4ccc(F)cc4)[nH]n3)C2)cc1OCC (configuration not stated),0%
CCCCCC(=O)Nc1nc2c(s1)C[C@@H]1[C@](C)(CO)[C@H](O)CC[C@@]1(C)[C@@H]2CC(=O)Nc1cccc(O)c1,-15%
COc1ccc(C(=O)NC2CCN(c3cc(-c4ccc(OC)cc4)[nH]n3)C2)cc1 (configuration not stated),-12%
Cc1nc(C2CC2)ncc1C(=O)N1CCN(C)C2(CCNC(=O)CC2)C1 (configuration not stated),-2%
CCOc1ccc(NC(=O)Cn2c(Nc3cc(C)cc(C)c3)nc(C)cc2=O)cc1,-27%
Cc1ccc(OCC(=O)c2ccc3c(c2)N(CCCC(=O)N2CCOCC2)C(=O)CO3)cc1C,-9%
O=C(c1ccc(F)cc1)N1CCCC(CN2CCOCC2)CC1 (configuration not stated),4%
Cc1cc(-c2cc3c(cn2)CN(Cc2cccs2)CCN3)ccn1,-21%[70.6 µM]
COc1ccc(-c2nnc3ccc(NCCc4ccccc4)nn23)nc1,3%[70.6 µM]
Cc1nc2c(c(-c3ccc(O)cc3)n1)CN(Cc1ccccn1)CC2,0%[70.6 µM]
O=C(C[C@@H]1O[C@H](CNS(=O)(=O)c2ccc(Cl)cc2)[C@@H](O)C1O)N1CCN(c2ccccc2)CC1 (some centres not stated),2%
c1ccc(Cn2cc(Cn3ccnc3-c3cc4n(n3)CCNC4)cn2)cc1,3%
COc1cccc(N2C(=O)NC(=NC3CCCCC3)C23CCN([S+](=O)([O-])c2cccc(C(F)(F)F)c2)C3)c1 (configuration not stated),0%
CN1CCCCCC(O)c2cc(C(=O)NCCc3ccccn3)ccc21 (configuration not stated),-10%
CC(=O)NC1(C)CCN(Cc2ccc(-c3cccc(F)c3)cc2)C1 (configuration not stated),-15%[70.6 µM]
COc1ccc(NC(=O)N2CC[C@H]3COC(=O)N3c3cc(C)ccc3C2)cc1,3%[70.6 µM]
COC[C@@H]1CN(C(=O)c2cccc(C)n2)C[C@H]1c1nc(C2CC2)no1,-1%
Cc1cccc(CN2C[C@@H](F)[C@@H](OCc3nc4ccccc4[nH]3)C2)n1,5%[70.6 µM]
COc1ccccc1CNC[C@H]1Cn2cc(-c3ccc(C)cc3)nc2CO1,0%[70.6 µM]
CN(Cc1cccnc1)c1nc2c(c(=O)[nH]1)CCN(Cc1ccccc1)CC2,3%
COc1cccc(CN2CCCC3(CCN(C(=O)CNC(N)=O)C3)C2=O)c1OC (configuration not stated),4%
CN(C)c1ccc2ncc(Nc3cc(F)cc(N4CCOCC4)c3)n2n1,2%[70.6 µM]
O=C1CCC(C(=O)N2CCN(Cc3ccc(F)cc3)CC(O)C2)=NN1 (configuration not stated),-2%

# In the list so far, 2 have a thiophene ring, fused or not:
SMILES,hNpr1 antagonist
COc1ccc(-c2nc(C(C)C)nc3c2CN([S+](=O)([O-])c2cccs2)CC3)cc1,6%
Cc1cc(-c2cc3c(cn2)CN(Cc2cccs2)CCN3)ccn1,-21%[70.6 µM]

# More results follow:
SMILES,hNpr1 antagonist
COCCNc1ccc(-c2noc([C@@H]3CCCN3C3CCOCC3)n2)cn1,-10%[70.6 µM]
Cc1cnc(C2CC2)n1CCNC(=O)CN1CCOCC1,4%
Cc1cn2nnc(C(=O)N3CCN(c4ccccc4)CC3)c2c(=O)[nH]1,0%
O=C(Nc1ccc(F)cc1)N[C@H]1[C@H](O)[C@@H](N2CCN(c3ccccc3)CC2)[C@@H]2OC[C@H]1O2,-3%
COc1cccc(CNC(=O)N[C@@H]2CN(Cc3ccncc3)C[C@H]2CN(C)C)c1,4%
Cc1nc(C)c(C(=O)N2CCN(C(=O)N(C)C)[C@@H]3CS(=O)(=O)C[C@@H]32)s1,6%
Cc1ccc(CC(=O)N2CCC(Cc3nc(-c4cnccn4)no3)CC2)cc1,-3%
Cc1c(CN2CCC3(CC2)COC(=O)O3)c(=O)n(-c2ccccc2)n1C,0%
COc1cccc(CCC(=O)N2CCC(c3nc(C4CCOCC4)no3)C2)c1 (configuration not stated),-1%
O=C(NC1CC1)c1ccccc1OC1CN(Cc2ccc(F)cc2F)C1,-14%
Clc1ccc2nc(N3CCC(NC4CCSC4)CC3)sc2c1 (configuration not stated),11µM*
Cc1cccc(NC(=O)c2ccc3c(c2)N(S(C)(=O)=O)CC3)c1C,-3%
O=C(c1ccccc1)N1CCN(c2cc(-c3ccccc3)[nH]n2)CC1,-5%
CCOC(=O)c1cccc(NC(=O)O[C@@H]2CO[C@H]3[C@@H]2OC[C@@H]3n2nnnc2SC2CCCC2)c1,-3%
COCCn1c(C)cnc1CC1CCN(C(=O)c2ccc(OC)nc2)CC1,10%
CCOc1cccc(CN(C)C2CCc3nn(CC4CC4)c(=O)n3CC2)c1 (configuration not stated),1%
O=C(c1cccnc1)N1CCC(c2noc(-c3cnccn3)n2)C1 (configuration not stated),0%
CO[C@H]1C(=O)N(C2CCN(S(=O)(=O)c3ccc(C#N)cc3)CC2)[C@H]1c1ccncc1,-2%
Cc1ccc(C)c2c(=O)cc(CN3CCN(CCn4cncn4)CC3)[nH]c12,-2%
CCOc1nccnc1NC1CCN(C(=O)c2ccnn2CC)CC1,3%
COc1ccc(-c2nc(C3CN(C(=O)c4cc(F)cc(F)c4)C3)no2)cc1,-10%
Cc1cc(=O)n(CC(=O)Nc2ccc(C(C)C)cc2)c(N2CCN(c3ccccc3)CC2)n1,-1%
CC1=NOC2(CCN(C(=O)c3ccccc3)CC2)C1,29%[70.6 µM]
Cc1cccc(Cn2c(=O)c(-c3noc(C)n3)c3n(c2=O)CCCCC3)c1,3%
O=C(NCC1(O)CCCNCC1)C1(c2ccc(Cl)cc2)CCC1 (configuration not stated),1%
COc1cc(F)cc(-c2cnc3[nH]cc(CC(=O)N4CCOCC4)c3c2)c1,6.3µM*
CCOc1ccccc1C(=O)N[C@@H]1CN(Cc2cccnc2)C[C@H]1CN(C)C,1%
O=C(Cc1ccc(N(Cc2cccc(F)c2)C(=O)c2ccco2)cc1)NCc1ccccc1,-23%
COc1ccc(C(=O)N2CCC(Cc3nc(-c4ccccc4)no3)CC2)cc1F,3.2µM*
Cc1ccc(-c2nccn3cc(C(=O)N4CCN(c5ccccn5)CC4)nc23)cc1,-18%
COC[C@@H]1[C@H](NC(=O)CCc2nc3ccc(F)cc3[nH]2)[C@@H]2CCO[C@H]12,5%
Cc1ccc(NC(=O)Cn2c(N3CCCCC3)nc(C)c(C)c2=O)c(Cl)c1,0%
CS(=O)(=O)N1CCCC(C(=O)NCC2CCN(Cc3ccc(F)cc3)CC2)CCNC(=O)CC1 (configuration not stated),7%
CCOCCCNC(=O)N1Cc2ccccc2OC2(CCN(C)CC2)C1,-5%
CN(CC1CCOCC1)C(=O)Nc1ccc(C(F)(F)F)cc1,-2%
CCC1(C2CCN(C(=O)CCCc3ccccc3)CC2)NC(=O)N(CCc2scnc2C)C1=O (configuration not stated),3%
NC(=O)COc1cccc(C(=O)N2C[C@H](CO)C[C@H](CN3CCCC3)C2)c1,0%
CCc1ncc(CN2CCCC23CCN(c2ccc(C(F)(F)F)cn2)CC3)cn1,-18%
COc1cccc(-c2cc(C(=O)N[C@@H](C)C(N)=O)[nH]n2)c1,0%
Cc1noc(C)c1-c1cc(-c2cccc(O)c2)cn2cncc12,-2%[70.6 µM]
CC(=O)Nc1ccc(CN2CCc3nc(C4CC4)nc(-c4ccc(O)cc4)c3CC2)cc1,6%
CCNC(=O)[C@@H]1C[C@H](NC(=O)CO)CN1CC(=O)NCc1cccs1,-2%
O=C(Cn1cncn1)N1CCC(C2CCN(Cc3cccc(F)c3F)CC2)C1 (configuration not stated),-5%
CC(C)N1C(=O)C2(CCCC2)C1C(=O)NCCCN1CCCC1=O (configuration not stated),-3%
O=C(NCCc1noc(-c2ccncc2)n1)C1CCOC1 (configuration not stated),-24%
COCCN1CC(CO)C2(CCN(Cc3cnn(C(C)C)c3)CC2)C1 (configuration not stated),2%
COc1ccc(Cl)cc1-c1ccc2c(c1)C(=O)N1CCN(C(=O)C3CC3)C[C@@H]1C(=O)N2,0%[70.6 µM]
O=C(Nc1ccc2c(c1)CN(Cc1ccccc1F)C(=O)CO2)c1ccccc1F,-18%
NC(=O)[C@@H]1CN(C(=O)c2cnccn2)C[C@H]1COc1ccccc1,0%
CC(C)=CC(=O)N1C[C@@H](NC(=O)NC2CCCCC2)C[C@H]1C(=O)N[C@H](Cc1c[nH]c2ccccc12)C(N)=O,0%
Cc1ncc2n1C(=O)N(C1CCN(Cc3ccccc3)CC1)C2,7%&-9%[70.6 µM]
O=C(Cc1ccc(F)cc1)NCc1nnc2ccc(-c3ccc(Cl)cc3)nn12,9%
COc1cccc(CNC(=O)c2cc3n(n2)CC(c2ccc(Cl)cc2)OC3)c1 (configuration not stated),-28%
O=C(O)CCn1ncc2cc(OCC3CCN(C(=O)CCC(F)(F)F)CC3)ccc21,6%[70.6 µM]
CCCN1C(=O)Cc2ccccc2C1C(=O)NCc1cc(OC)ccc1OC (configuration not stated),-26%
COc1cccc(CNC(=O)Cn2ccn3nc(-c4ccccc4)c(CO)c3c2=O)c1OC,0%
Cn1cnc2cc(-c3ccc(F)cc3)cc(C(=O)NCc3cccnc3)c21,-1%[70.6 µM]
CCN1C(=O)Cc2cc(C(=O)NCCC(C)C)ccc21,2%
CCn1ccc2oc(C)c(C(=O)N3CCN(c4ccc(OC)cc4)CC3)c2c1=O,4%
CN1CC2(CCN(C(=O)N3CCOCC3)CC2)CC(c2ccccc2)C1=O (configuration not stated),1%
# (cont.)
SMILES,hNpr1 antagonist
COc1ccc(C)cc1NC(=O)C1CN(S(=O)(=O)C2CC2)CC12CCCCC2 (configuration not stated),1%
Cc1cnc(C2CC2)n1C1CCN(C(=O)C(C)C)CC1,10%
CN1CCN(CCCNC(=O)C2CCc3sc(C(=O)N4CCCCCC4)cc3C2)CC1 (configuration not stated),0%
CN(C(=O)c1ccc2cc[nH]c2c1)C1CCc2nn(C)c(=O)n2CC1 (configuration not stated),5%
CN(C)C[C@@H]1CN(c2ncccn2)C[C@H]1NS(=O)(=O)c1cccnc1,11%
Cc1ccsc1C(=O)N1CCCCCC1c1nnc(-c2ccccc2)o1 (configuration not stated),-1%

# Compounds above that contain a furan ring, fused or not:
SMILES,hNpr1 antagonist
O=C(Cc1ccc(N(Cc2cccc(F)c2)C(=O)c2ccco2)cc1)NCc1ccccc1,-23%
CCn1ccc2oc(C)c(C(=O)N3CCN(c4ccc(OC)cc4)CC3)c2c1=O,4%
